# RE007 growth inh: less growth of the S. pombe RE007 Vpr strain | S. pombe RE007 Vpr strain, BacTiter-Glo ATP luminescence, 24 h; control for the full effect not named in the record | Potency, µM (highest dose often 92.2 µM), without a hit: at the top dose activity change, negative = less growth | 360,000 tested, 0.21% active | AID 651644; active = well fitted falling curve with a large enough effect; inconclusive = small, poorly fitted or top-dose-only effect; inactive = no such curve, though single readings can be large or run the other way;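 note: % is set by controls: 0 for no effect and ±100 for the full control effect; nearly all actives have a fitted effect of over 50% in size; the assay follows cell death caused by Vpr and the record does not say whether a fall means rescue or toxicity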
#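 Fission yeast RE007 carrying one integrated HIV-1 vpr copy, seeded at OD 0.01 in PMG+AL medium with 23 nL pinned compound. Grown 24 h at 30 degrees; viability read by BacTiter-Glo luminescence after 5 min.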
# 2A StopGo: lowers the luciferase signal of an FMDV 2A StopGo reporter | AID 1159524 | Potency, µM (top dose mostly 57.9 µM), without a hit: at the top dose signal change, negative = less light | human cells with a luciferase reporter of 2A StopGo recoding; control for the full effect not named in the record | 410,000 tested, 1.2% active; active = well fitted falling curve with a large enough effect; inconclusive = small, poorly fitted or top-dose-only effect; inactive = no such curve, though single readings can be large or run the other way; tested in HEK293T cells; note: % is set by controls: 0 for no effect and ±100 for the full control effect; nearly all actives have a fitted effect of over 45% in size; luciferase light after 4 h
# SARS PLpro yeast: SARS-CoV PLP inhibition in yeast; S. cerevisiae expressing SARS-CoV PLpro, growth rescue; control for the full effect not named in the record; Potency, µM (highest dose often 32.9 µM), for inactives: top-dose activity, positive = growth rescue; 330,000 tested, 0.19% active; AID 485353; active means well fitted rising curve with a large enough effect; inconclusive means small, poorly fitted or top-dose-only effect; inactive means no such curve, though single readings can be large or run the other way; note: 0% is about no effect; nearly all actives have a fitted effect of over 55% in size; growth read by luminescence after 48 h
# Cruzain inh Det: cruzain (T. cruzi) inhibition with detergent. P25779. Potency, µM, for inactives: max response, negative = inhibition, hits mostly inhibitors. purified cruzain, Z-FR-AMC fluorescence, 0.01% Triton. 200,000 tested, 0.43% active. AID 1478;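 note: plate controls were neutral wells for no effect and buffer without enzyme for full effect; nearly all actives have a fitted effect of over 40% in size; top concentration of the series not given in the record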
# Target sequence (P25779 123-467 limits assumed): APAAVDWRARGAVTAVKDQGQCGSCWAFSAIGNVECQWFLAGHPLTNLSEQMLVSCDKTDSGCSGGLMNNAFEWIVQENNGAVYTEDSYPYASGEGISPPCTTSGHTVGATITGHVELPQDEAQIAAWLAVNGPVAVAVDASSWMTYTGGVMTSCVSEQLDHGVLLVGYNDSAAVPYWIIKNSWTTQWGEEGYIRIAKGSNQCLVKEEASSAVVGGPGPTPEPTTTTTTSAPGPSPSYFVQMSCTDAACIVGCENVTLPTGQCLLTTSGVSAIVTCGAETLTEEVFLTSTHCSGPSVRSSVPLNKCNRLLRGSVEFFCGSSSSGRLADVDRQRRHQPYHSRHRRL
#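 Enzyme 1.5 nM, Z-FR-AMC 2 uM, NaOAc 100 mM pH 5.5, DTT 5 mM, Triton X-100 0.01%; 15 min RT compound preincubation; kinetic ex360/em450, 60 s delta.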
# NS1 inh: inhibitors of influenza NS1 protein function | S. cerevisiae slowed by influenza A NS1, growth recovery by OD600 | Potency, µM (top dose mostly 46.1 µM), for the others: top-dose activity, positive = more growth | 270,000 tested, 0.4% active | AID 2326; active means well fitted rising curve with a large enough effect; inconclusive means small, poorly fitted or top-dose-only effect; inactive means no such curve, though single readings can be large or run the other way; note: nearly all actives have a fitted effect of over 50% in size
#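 Growth recovery, yeast-based: influenza A NS1 expressed in S. cerevisiae causes slow growth, and suppressors are detected by OD600. The parent strain without NS1 is used as positive control.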
# Cruzain noTriton: blocks cruzain activity in detergent-free assay; P25779; purified cruzain, Z-FR-AMC fluorescence, no detergent; Potency, µM, for inactives: max response, negative = inhibition, usual class: inhibitors; 200,000 tested, 2.3% active; AID 1476;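 note: plate controls were enzyme without inhibitor for no effect and buffer without enzyme for full effect; nearly all actives have a fitted effect of over 40% in size; top concentration of the series not given in the record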
#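 Purified cruzain at 1.5 nM, pre-incubated 15 min with compound at room temperature in 100 mM sodium acetate pH 5.5, 5 mM DTT, 0.00005% Triton X-100. Reaction started with 2 uM Z-FR-AMC; AMC fluorescence increase over 60 s gives rate.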
# MARV entry inh: blocks Marburg virus binding to or entry into cells; 300,000 tested, 1.8% active; Marburg virus pseudotyped entry inhibition, cell reporter; control for the full effect not named in the record; about a third of the inactives were read at about 46 µM; Potency, µM (top dose mostly 37.8 µM), for inactives: at the top dose activity change, negative = inhibition, hits mostly inhibitors; active = well fitted inhibition curve with a large enough effect; inconclusive = small, poorly fitted or top-dose-only effect, or effect the other way; inactive = flat fitted curve, though single readings scatter; tested in HEK293 cells; about a fifth of its hits are not listed in these tables; note: % is set by controls: 0 for no effect and ±100 for the full control effect; luciferase read-out
# Lassa entry inh: inhibitors of Lassa virus binding or cell entry | Lassa virus pseudotype entry inhibition, cell reporter; control for the full effect not named in the record | Potency, µM (series often up to 37.9 µM), for inactives: at the highest dose activity change, negative = inhibition, actives largely listed as inhibitors | 300,000 tested, 1.2% active; active means well fitted inhibition curve with a large enough effect; inconclusive means small, poorly fitted or top-dose-only effect, or effect the other way; inactive means flat fitted curve, though single readings scatter; tested in HEK293 cells; note: % is set by controls: 0 for no effect and ±100 for the full control effect; nearly all actives have a fitted effect of over 50% in size; luciferase read-out
# Numbers without * were called inactive; ? = inconclusive; . = no result given; [ ] = remark or other dose. Unless noted, calls come from the whole dose curve; as a rule, active = well fitted curve in the direction sought with a large enough effect; inconclusive = small, poorly fitted or top-dose-only effect, or another doubt; inactive = no such curve, though single readings can be large; an effect the other way counts as inactive or inconclusive. Potency is the fitted concentration of half-maximal effect.
# Order of values: Lassa entry inh, Cruzain noTriton, RE007 growth inh, NS1 inh, 2A StopGo, MARV entry inh, Cruzain inh Det, SARS PLpro yeast
Fc1cccc(-c2oncc2-c2nnnn2-c2ccc(Cl)cc2)c1
    -15%, -11%, -6%, -15%, -14%, -2%, -1.2%, ?
Nc1c(-c2ccccc2)nc(Cl)nc1-c1ccccc1
    -12%, 8%, 13%, 4%, 0%, ?, -11%, 3%
Cc1ccc(CNC(=O)N[C@@H](Cc2ccccc2)C(=O)O)cc1
    -16%, 1%, 20%, 14%, -8%, -1%, -1.0%, 2%
COc1cc(OC)c(C(=O)Nc2cc(Cl)ccc2-n2cncn2)cc1OC
    -1%, ., -12%, ., -28%, -3%[46.1 µM], ., -1%
Cc1cc(SCC(=O)NC2CCCC2)nc2ccccc12
    8%[46.1 µM], ., 10%, -34%, 0%, -2%[46.1 µM], ., -7%
O=C(Nc1nnc(CSCc2ccc(F)cc2)s1)c1ccc([N+](=O)[O-])cc1
    20%, 25µM*, 2%, -1%, -30%, 4%, -4.5%, -9%
O=C(N/N=C/C1C(c2ccccc2)C1(Cl)Cl)c1cccc(Cl)c1 (stereo not given)
    9%, -10%, -2%, -32%, 0%, 23%, -7.0%, 7%
Cn1c(CC(=O)Nc2ccc(F)cc2)nnc1SCC(=O)Nc1nncs1
    2%[46.1 µM], ., 10%, -2%, 6%, 1%[46.1 µM], ., 3%
CC(=O)N1CCOCCOCCN(C(C)=O)CCOCCOCC1
    1%, ., 15%, 5%, 4%, -5%[46.1 µM], ., 0%
COc1ccc(Cl)cc1NC(=O)N1CCN(Cc2cc(=O)n3nc(-c4ccccc4)sc3n2)CC1
    9%[46.1 µM], 8%, ., ., -31%, ., 1.2%, .
Cn1c(=O)[nH]c(=O)c2cc(C(=O)c3cc(F)ccc3O)cnc21
    -8%, ., 1%, 2%, ?, -3%, ., -1%
CN1/C(=C/C(=O)COC(=O)CN2C(=O)C3CC=CCC3C2=O)C(C)(C)c2ccccc21 (stereo not given)
    2%[46.1 µM], ., -7%, ., -20%, ?, ., .
C/C(=N\Nc1cc(Cl)nc(C)n1)c1ccccc1
    -22%, -4%, -21%, -1%, 22%, ?, -3.3%, -3%
COc1cccc(Nc2nc3ccccc3n3nnnc23)c1
    13%, -9%, -9%, -3%, 17%, ?, -3.8%, -7%
CC1=NN(c2ccc(C)cc2)C(=O)/C1=C\c1ccc(Br)s1
    28%, -1%, -2%, 3%, 2%, -6%, -1.7%, 18%
COc1ccc(NC(=O)C2CCCN2S(=O)(=O)c2ccc3c(c2)CCCC(=O)N3)cc1Cl (stereo not given)
    -6%[46.1 µM], -4%, ., ., ?, ., 0.3%, .
CCN1CCN(C(=O)CN(CC)S(=O)(=O)c2ccc3ccccc3c2)CC1
    ., ., -13%, 12%, -16%, ., ., -5%
COC(=O)c1cn(C)c2ccc(S(=O)(=O)N3CCCC3)cc2c1=O
    19%, -11%, 6%, -106%, 10%, -8%, -12%, -31%
CCC(=O)Nc1c2c(nn1-c1ccc(OC)cc1)CSC2
    ., ., -1%, -1%, -12%, ., ., -1%
COc1cc(/C=C/C(=O)OCC(=O)c2c(N)n(C)c(=O)n(C)c2=O)ccc1OC(F)F
    -10%, ., -4%, 5%, ?, 16%[46.1 µM], ., 1%
COc1ccc(N2CCN(c3nc4ccccc4n4c(C)nnc34)CC2)cc1
    -8%[46.1 µM], -1%, ., ., -2%, ., -3.5%, .
COc1ccc(S(=O)(=O)N(C)CC(=O)NCc2ccccn2)cc1
    0%[46.1 µM], ., 0%, 1%, 33%[activator], ?, ., 2%
O=C(/C=C/c1cccnc1)/C=C/c1cccnc1
    ., ., ?, -76%, 11µM*, ., ., -7%
Cc1ccc(N/C=C/C(=O)C(C)(C)C)c(O)c1
    0%, 3%, 4%, 8%, 3%, -17%, -5.6%, -9%
Cc1cccc(NC(=S)N(CCN(C)C)Cc2cc3cccc(C)c3[nH]c2=O)c1
    -14%, -8%, ., 6%, -21%, ?, -2.8%, 20%
CCOc1ccccc1NC(=O)C1CCN(S(=O)(=O)c2ccc3[nH]c(=O)ccc3c2)CC1
    6%[46.1 µM], 10%, ., ., -15%, ., -3.3%, .
O=C1CCc2cc(S(=O)(=O)NCCc3ccc(Cl)cc3)cc3c2N1CC3
    8%, ., 1%, ., 79%[activator], 19%, ., -12%
CCCCN(Cc1ccco1)C(=O)C1CCCN(c2ncnc3c2nc2n3CCCCC2)C1 (stereo not given)
    ?, ., -3%, -53%, -25%, ?, ., -2%
COc1ccc(C(=S)Nc2ccccc2)cc1
    ?, 8%, 20%, 10%, 14%, 27%, -2.2%, 6%
Cc1csc2nc(COC(=O)CNC(=O)c3ccccc3Cl)cc(=O)n12
    27%[46.1 µM], 20µM*, ., ., 0%, ., 25µM*, .

# Continued:
# Order of values: Lassa entry inh, Cruzain noTriton, RE007 growth inh, NS1 inh, 2A StopGo, MARV entry inh, Cruzain inh Det, SARS PLpro yeast
CCN(CC)c1nc2ccccc2nc1C(C#N)C(=O)NCCCOC (stereo not given)
    -23%, ?, -6%, -35%, ?, -1%, -9.1%, 3%
Cc1cc(=O)[nH]c(-n2nc(C)cc2C)n1
    -17%, 7%, ?, -31%, -2%, -15%, 5.5%, -26%
Cc1ccc(-n2nc(C)c3c2NC2=C(C(=O)CC(C)(C)C2)C3c2ccccc2OCC(=O)O)cc1 (stereo not given)
    ., ., 3%, ., -14%, -14%[46.1 µM], ., -4%
Cc1ccc(-n2c(C)cc(C)c(C#N)c2=O)cc1Cl
    7%, -8%, 4%, -2%, -4%, 21%[46.1 µM], 0.6%, 4%
C=CCc1ccccc1OCC(O)CN1CCN(c2ccccc2F)CC1 (stereo not given)
    2%, -3%, -7%, -16%, ?, -36%, 0.0%, 0%
COC(=O)C1CCN(C2=C(NS(=O)(=O)c3ccc(Cl)cc3)C(=O)c3ccccc3C2=O)CC1
    ., ., -12%, 2%, -6%, ., ., -5%
CCNc1ccc(C2(O)C(=O)c3ccccc3C2=O)cc1
    10%, -8%, -8%, -1%, 4%, ?, -6.1%, -11%
O=C(c1cccnc1)N1C2C=CC(C2)C1(C(F)(F)F)C(F)(F)F (stereo not given)
    2%, 12%, -14%, 5%, -1%, 27%, 4.2%, .
CC(=O)COc1ncn(-c2ccccc2)n1
    ?, -5%, -1%, 5%, 14%, -4%, 4.3%, 1%
CCCCC(=O)OC1=C(C(=O)c2ccccc2)N(CCC)S(=O)(=O)c2ccccc21
    -4%[46.1 µM], -29%, ., ., -12%, ., -10%, .
O=C(NCCN1CCN(c2cccc(Cl)c2)CC1)Nc1ccccc1C(F)(F)F
    1%[46.1 µM], 2%, ., ., -5%, -4%[46.1 µM], -2.7%, .
Cc1cnc(C(=O)OCC(=O)c2cccc3ccccc23)cn1
    23%, ., -11%, ., -10%, 0%, ., -3%
Cc1ccc(CNC(=O)c2cc3c(=O)n(Cc4ccco4)ccc3nc2C)cc1
    ?, ?, ., ., -12%, ., -6.6%, .
COc1cc([N+](=O)[O-])ccc1N/C=C/C(=O)c1cccs1
    ?, ?, -8%, -10%, -51%, ?, 2.8%, -7%
O=C(Nc1nnc(-c2ccccc2)o1)C1CCCN1S(=O)(=O)c1cccs1 (stereo not given)
    -2%, ., 4%, ., 0%, -8%[46.1 µM], ., -1%
O=C(CSc1nc2ccccc2n1CC(=O)N1CCCC1)Nc1ccc2c(c1)OCO2
    19%, -9%, 5%, -5%, -27%, 1%, -1.4%, 1%
COCCN(C(=O)COC(=O)CC1CCCCC1)c1c(N)n(Cc2ccccc2)c(=O)[nH]c1=O
    ., ., -7%, 14%, -3%, ., ., 4%
COc1ccc(OC)c(CN2CCN(C(=O)Cc3ccccc3)CC2)c1
    ., ., -3%, 9%, -5%, ., ., 5%
Cc1ccc(C(=O)NNC(=O)c2ccc3ccccc3c2O)cc1
    -3%[46.1 µM], ., -12%, -60%, -2%, 0%[46.1 µM], ., -3%
Cc1ccc(C(C)C)c(OCC(=O)N2CCOCC2)c1
    20%, 9%, 41%, -4%, -10%, 20%, -2.1%, 8%
CS(=O)(=O)NCCNc1ccc(C(F)(F)F)cc1[N+](=O)[O-]
    ., ., -1%, 4%, 22%, ., ., -1%
O=C(NCCc1ccccc1F)/C(=C/c1cccnc1)NC(=O)c1ccccc1
    11%, 18%, 0%, 4%, -17%, 3%, -1.1%, 17%
CCOC(=O)c1ccc(NC(=O)C2(c3ccccc3)CCCC2)cc1
    -4%, -8%, -12%, 11%, -8%, -9%, -2.5%, 7%
CCOC(=O)c1sc(N2N=C(C)/C(=C\c3ccc(OCC(=O)OC)cc3)C2=O)nc1C
    19%, -10%, -25%, 6%, -15%, -9%, 0.5%, -6%
O=C(CSc1nnc(Cn2c(=O)sc3ccccc32)n1-c1ccccc1)N1CCCCCC1
    ., 1%, 10%, -11%, -6%, ., -3.8%, -12%
Cc1ccc(CN(C(=O)c2ccco2)C(C(=O)NC2CCCC2)c2ccc(N3CCOCC3)cc2)cc1 (stereo not given)
    -25%, 30%, 25%, 0%, 4%, 0%[46.1 µM], 1.9%, -22%
COc1ccc(C2CC(c3cccs3)=NN2C(=S)Nc2ccccc2)cc1OC (stereo not given)
    3%, -3%, 13%, -5%, -30%, 3%, -3.2%, -17%
CC1(C)CC(=O)C2=C(C1)NC(=O)CC2c1cccc(F)c1 (stereo not given)
    -4%, 11%, -3%, 2%, -2%, 2%, 3.4%, 12%
COc1ccc(C(=O)Nc2nnc(Cc3ccccc3)s2)c(OC)c1
    ?, ., -4%, 21%, 9%, ?, ., 9%
COc1ccc(Cn2c(C(=O)O)c(CNC3CCC(C)CC3)c3ccc(C)cc32)cc1 (stereo not given)
    19%[46.1 µM], -19%, ., ., -10%, ., -2.5%, .
O=C(NS(=O)(=O)Oc1cccc(F)c1)OC[C@@H]1CCCN2CCCCC12 (stereo not given in full)
    -13%, ., 6%, 6%, -6%, 2%[46.1 µM], ., -2%
CN(Cc1ccccc1)C(=O)c1cc(S(=O)(=O)N2CCOCC2)cn1C
    ., ., 5%, 4%, -20%, ., ., 8%

# This is a random part of the collection; overall some 4.6% were active at least once.
